PKD1 inh: blocks activity of human protein kinase D1; PKD1 kinase fluorescence polarization assay; 200,000 tested, 0.056% active; Q15139; AID 797; inhibition, %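 (about 10 µM by stock and volumes)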;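 active means inhibition of 50% or more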;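 further: controls were vehicle for no effect and a reference inhibitor for full effect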
Target sequence (Q15139 whole entry, looked up): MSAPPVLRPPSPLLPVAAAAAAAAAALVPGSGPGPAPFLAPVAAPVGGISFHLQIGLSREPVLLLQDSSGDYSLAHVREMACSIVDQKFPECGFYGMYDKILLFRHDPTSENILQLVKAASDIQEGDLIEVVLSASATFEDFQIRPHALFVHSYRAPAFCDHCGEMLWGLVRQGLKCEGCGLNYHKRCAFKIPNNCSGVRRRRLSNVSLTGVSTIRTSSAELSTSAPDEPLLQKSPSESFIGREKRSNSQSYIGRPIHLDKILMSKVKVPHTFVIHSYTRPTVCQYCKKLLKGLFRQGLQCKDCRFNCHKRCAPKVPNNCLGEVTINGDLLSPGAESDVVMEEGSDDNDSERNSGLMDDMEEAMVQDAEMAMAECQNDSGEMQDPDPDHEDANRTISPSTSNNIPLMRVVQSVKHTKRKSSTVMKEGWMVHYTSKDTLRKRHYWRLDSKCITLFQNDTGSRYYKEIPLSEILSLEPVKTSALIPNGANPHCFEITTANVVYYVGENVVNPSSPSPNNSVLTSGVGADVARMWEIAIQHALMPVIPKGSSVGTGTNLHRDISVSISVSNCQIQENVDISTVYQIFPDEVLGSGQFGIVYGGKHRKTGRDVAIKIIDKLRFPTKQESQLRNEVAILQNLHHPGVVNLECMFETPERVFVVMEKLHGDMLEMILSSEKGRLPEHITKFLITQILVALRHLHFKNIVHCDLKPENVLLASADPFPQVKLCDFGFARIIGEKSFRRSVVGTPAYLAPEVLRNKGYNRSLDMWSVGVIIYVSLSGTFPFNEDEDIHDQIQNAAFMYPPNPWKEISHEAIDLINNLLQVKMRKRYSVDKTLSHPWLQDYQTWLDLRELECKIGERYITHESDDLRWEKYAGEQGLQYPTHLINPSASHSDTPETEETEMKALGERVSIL
RGS16-Gao HTS: RGS16-Galphao interaction regulator (human). O15492+P09471. bead-based flow cytometry RGS16-Galphao binding, fluorescence; actives lie on both sides. binding response (% of control), % at 10 µM. 220,000 tested, 0.38% active;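 active means below 25% or above 175%, edge rows of some plates excepted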;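 further: Galphao activated by GDP with aluminum fluoride before binding; 100% = wells without compound and 0% = beads without RGS; some results beyond the cut were filed as inactive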
GALR2 ag: GALR2 (human) receptor agonism; O43603; GALR2-expressing cells, agonist activation read-out; activation, %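 (tested at 5 µM)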; 140,000 tested, 0.48% active; AID 803;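 active means above mean plus 3 SD of all compounds, about 5% in these data, not always enough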;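 further: 0% = vehicle buffer wells and 100% = reference agonist at full effect; tested in CHO reporter cells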
HSV augment: HSV replication enhancement | HSV replication augmentation in cells, fold increase | maximum fold increase | 220,000 tested, 0.005% active | AID 1956;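 active means peak rise of 1.5-fold or more in the series; tested in PC3 cells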;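 further: first round at 10 µM; read as green reporter fluorescence; hits show the peak of a series up to 25 µM; 1 = signal of infected wells without compound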
Insulin prom inh: TRM-6 insulin promoter activity inhibition. TRM-6 cells (human fetal islet line), insulin promoter-eGFP reporter, imaging; reporter expression induced with tamoxifen. inhibition, % at 2 µM. 130,000 tested, 0.9% active. AID 1273;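 active means inhibition above the mean plus 3 SD, with well images judged a real hit on visual review, cut at about 60% in these data, passing the limit was not always enough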
Insulin prom inh cell count: further read-out of Insulin prom inh, marked with its call; normalized cell count, %; measured here: cell count, toxicity; reference of the scale not given here;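 cells exposed to compound for 48 h; stained nuclei by imaging scaled within each plate; lower means fewer cells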
HSV augment primary fold: further read-out of HSV augment, marked with its call; fold increase; compound at 10 µM; measured here: primary screen fold increase 10 uM; tested in PC3 cells;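 GFP signal in the first replicate; 1 = infected wells without compound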
* hit, by the source's call; i = inactive; · = no result given.

entry	Compound	HSV augment	PKD1 inh	HSV augment primary fold	RGS16-Gao HTS	GALR2 ag	Insulin prom inh cell count	Insulin prom inh
1	COc1ccc(N2CCN(Cc3nc4cc(Cl)ccc4c(=O)[nH]3)CC2)cc1	i	-6	1	100	·	·	·
2	Cc1ccc(S(=O)(=O)N2CCOCC2)cc1NC(=O)CN1CCN(c2ccc(O)cc2)CC1	i	-4	0.91	104	-1.7	83	-10
3	CC(=O)NC(=S)Nc1cc(C(=O)O)ccc1Cl	i	-1	0.95	107	·	113	-27
4	COc1ccccc1C(C)NCC(=O)Nc1c(F)cccc1F (stereo unspecified)	i	-1	0.8	95	·	·	·
5	CCOC(=O)c1c(CC(C)C)csc1NC=O	i	3	0.93	106	-0.7	72	31
6	O=Cc1ccccc1-n1cncn1	i	-3	0.84	96	·	·	·
7	COc1ccc(-c2[nH]ncc2CN(C)Cc2cccnc2)c(OC)c1	i	-2	0.95	98	·	·	·
8	CN(NC(=O)c1ccccc1)c1ncc(C(F)(F)F)cc1Cl	i	·	1	103	·	·	·
9	CCc1ccc(N2CC(C)Cn3c2nc2c3c(=O)n(CCN3CCOCC3)c(=O)n2C)cc1 (stereo unspecified)	i	0	1	91	-1.9	66	17
10	CCC1(C)N=c2c(c(=O)n(C)c(=O)n2C)=NO1 (stereo unspecified)	i	-6	0.95	96	-3.3	114	16
11	O=C(Nc1cc(Cl)cc(Cl)c1)C(c1ccccc1)N1CCCCC1 (stereo unspecified)	i	-5	0.96	129	-0.1	104	-10
12	CC(O)Cc1cn([C@@H](CCCCN)C(=O)N2CCNCC2)nn1 (stereo partly specified)	i	2	0.97	98	·	·	·
13	COc1ccc(CSCC(=O)N/N=C/c2ccc(OCC(=O)NCc3ccco3)cc2)cc1	i	2	0.99	93	-1.5	·	·
14	COc1ccccc1NC(=S)N1CCC(NC(=O)c2ccco2)CC1	i	-5	1	113	·	240	39
15	CC(=O)NC1=NN(C(C)=O)C(C)(c2ccc(C)o2)S1 (stereo unspecified)	i	1	0.99	84	·	·	·
16	Cc1ccc2c(c1)C(c1ccccc1)C(=O)O2 (stereo unspecified)	i	·	0.94	88	·	·	·
17	CCC(CC)C1C(C#N)=C(N)Oc2n[nH]c(-c3ccccc3)c21 (stereo unspecified)	i	0	0.89	106	-2.3	·	·
18	CNC(=O)Nc1ccccc1F	i	-6	1	108	-2.4	116	4
19	O=C(NCc1cccnc1)c1ccc([N+](=O)[O-])cc1	i	10	0.95	97	·	123	19
20	CCOc1ccc(-c2nc(-c3ccncc3)no2)cc1OCC	i	-10	1	93	-2.1	104	20
21	CCOc1ccc(NC(=O)c2nnn(CC(=O)Nc3ccccc3OCC)c2N)cc1	i	-3	0.93	103	-1.7	95	58
22	COc1cc(N(C)C)c(NC(C)=O)cc1C(=O)O	i	2	0.94	100	-1.1	107	-45
23	Cc1nc(C)c(C(=O)C2=C(O)C(=O)N(CCN(C)C)C2c2ccccc2)s1 (stereo unspecified)	i	-6	0.87	105	-1.8	·	·
24	COc1ccc(S(=O)(=O)N[C@H](C(=O)O)C(C)C)cc1	i	5	1	102	-2.8	·	·
25	CCOC(=O)N(CC)OC(=O)Nc1ccc(Cl)cc1	i	-8	1.1	102	-0.5	98	-19
26	O=c1c2oc3ccccc3c2ncn1Cc1ccc(Cl)cc1	i	-7	0.93	107	·	·	·
27	N#Cc1nc(COc2ccc(F)cc2)oc1N1CCC(Cc2ccccc2)CC1	·	2	·	153	-1.5	53	-294
28	Cc1cc(C)cc(N(C(=O)CNC(=O)c2cccs2)C(C(=O)NC2CCCC2)c2cccnc2)c1 (stereo unspecified)	i	-6	0.78	100	-1.0	92	-57
29	CCN(CC)c1ccc(NC(=O)c2cccnc2)cc1	i	6	0.95	107	-0.1	139	25
30	O=C(Cn1nc(C(F)F)cc1C(F)F)N/N=C/c1ccc2c(c1)OCO2	i	-4	0.93	103	-0.4	124	14
31	C[C@]12CCC(=O)C=C1CC[C@@H]1[C@@H]2C(=O)C[C@@]2(C)[C@H]1CC[C@]2(O)C(=O)CO	i	-3	0.99	·	-1.3	90	13
32	O=C(Cc1ccc(Cl)cc1)NNS(=O)(=O)c1ccc([N+](=O)[O-])cc1	i	3	1.1	135	-1.2	64	-55
33	N#Cc1c(Nc2ccccc2)c(/C=N/NCCO)c[nH]c1=O	i	-1	0.99	103	·	106	33
34	O=C(Nc1nc2ccccc2s1)c1cccc(S(=O)(=O)N2CCc3ccccc32)c1	i	·	1	99	·	·	·
35	O=C(O)CC1S/C(=N/N=C/C=C/c2ccccc2[N+](=O)[O-])NC1=O (stereo unspecified)	i	-4	1.1	71	-1.3	66	-14
36	Cc1cc(F)ccc1S(=O)(=O)Nc1ccccc1C(=O)NCc1cccnc1	i	1	0.98	101	·	·	·
37	Cc1ccc(S(=O)(=O)C2(C(=O)N3CCCCC3C)CC2)cc1 (stereo unspecified)	i	-7	0.88	96	0.7	82	15
38	CCOc1ccc(NC(=O)CC(c2ccccc2)c2ccc(F)cc2)cc1 (stereo unspecified)	i	-4	1	103	-0.8	74	-19
39	O=C1CS/C(=C/C(=O)c2cccc(Cl)c2)N1	i	2	0.99	99	·	·	·
40	CCOC(=O)c1ccc(N(CC(=O)NC2CCCC2)C(=O)CNC(=O)c2ccco2)cc1	i	6	0.97	102	-0.6	95	32

Whole records as entered above. Values in the order: HSV augment | PKD1 inh | HSV augment primary fold | RGS16-Gao HTS | GALR2 ag | Insulin prom inh cell count | Insulin prom inh
CCOc1ccc(NC(=O)c2nnn(CC(=O)Nc3ccccc3OCC)c2N)cc1 in the list: i | -3 | 0.93 | 103 | -1.7 | 95 | 58
CCN(CC)c1ccc(NC(=O)c2cccnc2)cc1 in the list: i | 6 | 0.95 | 107 | -0.1 | 139 | 25
O=C(O)CC1S/C(=N/N=C/C=C/c2ccccc2[N+](=O)[O-])NC1=O (stereo unspecified) in the list: i | -4 | 1.1 | 71 | -1.3 | 66 | -14
CCOC(=O)N(CC)OC(=O)Nc1ccc(Cl)cc1 in the list: i | -8 | 1.1 | 102 | -0.5 | 98 | -19
O=C1CS/C(=C/C(=O)c2cccc(Cl)c2)N1 in the list: i | 2 | 0.99 | 99 | · | · | ·

Additional results.
entry	Compound	HSV augment	PKD1 inh	HSV augment primary fold	RGS16-Gao HTS	GALR2 ag	Insulin prom inh cell count	Insulin prom inh
41	COC(=O)c1cccc(NC(=O)CSc2nc3cccnc3n2C)c1	i	-19	0.91	101	-2.4	·	·
42	CC(C)CC1(C(=O)O)NC(c2ccccc2O)C2C(=O)N(C(C)C)C(=O)C21 (stereo unspecified)	i	2	1.1	109	-1.2	·	·
43	COc1ccc(CCNC(=O)c2cnn3cccnc23)cc1OC	i	-6	1	107	-1.0	113	50
44	CC(C)C(=O)Nc1nnc(CSCc2ccccc2F)s1	i	-6	0.98	96	-0.9	101	19
45	c1ccc2c(SCc3cn4ccccc4n3)nncc2c1	i	-3	0.9	91	·	·	·
46	Clc1cccc(OCCN2CCOCC2)c1	i	3	0.82	104	-1.7	95	-59
47	Cc1cccc(-n2c(SCC(N)=O)nc3c(c2=O)C2(CCCC2)Cc2ccccc2-3)c1	i	-9	0.94	113	-2.0	130	26
48	CCCC(=O)Nc1ccc(C(=O)NCCCn2ccnc2)cc1	i	-4	0.97	96	1.9	48	-456
49	CCOc1cc(NC(=S)NCc2ccco2)c(OCC)cc1NC(=O)CC	i	-2	0.9	98	-1.0	109	-50
50	O=C(CN1CCCc2ccccc21)N/N=C/c1c(O)ccc2ccccc12	i	7	1.2	100	-1.7	96	-26
51	O=C(c1cc2nc(-c3ccc(F)cc3)cc(C(F)(F)F)n2n1)N1CCOCC1	i	-4	0.87	104	-0.5	·	·
52	CC1=C(C#N)c2nc(N)c(C#N)c(C)c2/C1=C\c1ccc(C)cc1	i	3	1	120	0.1	79	-46
53	O=C(CS(=O)(=O)c1c[nH]c2ccccc12)Nc1ccc2c(c1)OCCO2	i	-1	0.81	87	-0.5	187	-22
54	Cc1c(CNCCCc2ccccc2)c(C(=O)O)c(C)n1Cc1ccccc1	i	-3	0.89	100	·	118	-21
55	c1ccc(OCc2cc(-c3ccccc3)no2)cc1	i	-9	1	93	·	107	18
56	Cc1ccc(C2C(C#N)=C(N)Oc3n[nH]c(-c4cccnc4)c32)o1 (stereo unspecified)	i	-1	1.1	98	·	100	-38
57	CC(C)OCCCNC1=C(Cl)C(=O)c2ccccc2C1=O	i	·	0.81	90	·	·	·
58	O=C(NCc1ccccn1)C(F)(F)C(F)(F)C(=O)NCc1ccccn1	i	2	0.85	97	-3.1	97	-225
59	O=C1C(Cc2cccc([N+](=O)[O-])c2)SC(=Nc2ccccc2)N1c1ccccc1 (stereo unspecified)	i	2	1	98	-2.3	101	-22
60	CCCN1CCN(C(=S)NCc2ccc(Cl)cc2)CC1	i	-2	0.88	103	·	·	·
61	COc1ccc(C(=O)Nc2ccc(S(=O)(=O)Nc3cc(C)nc(C)n3)cc2)cc1OC	i	-1	0.96	96	·	·	·
62	CC(c1ccon1)N(C)Cc1cn(Cc2ccccc2)nc1-c1ccc2c(c1)OCO2 (stereo unspecified)	i	-3	1	107	·	·	·
63	COc1cccc(C2=NOC(C(=O)N3CCN(c4ccccc4)CC3)C2)c1OC (stereo unspecified)	i	-6	0.96	104	-0.4	·	·
64	Cc1cc(Cl)ccc1N1C(=O)CC(NNC(=O)c2cccnc2)C1=O (stereo unspecified)	i	-6	0.99	102	-0.4	122	-12
65	OCC1(Cc2ccc(Cl)cc2)CCN(CC2CC=CCC2)CC1 (stereo unspecified)	i	5	0.87	107	·	·	·
66	O=C(Nc1cccc([N+](=O)[O-])c1)c1cc2ccccc2cc1O	i	·	0.64	100	·	·	·
67	O=C(N/N=C/c1cccc([N+](=O)[O-])c1)c1ccncc1	i	·	1.1	99	·	·	·
68	CN1CCc2nc(SC(C(=O)O)c3ccccc3)c(C#N)c(-c3cccs3)c2C1 (stereo unspecified)	i	·	0.99	100	·	·	·
69	N/C(=N/OC(=O)c1cccc([N+](=O)[O-])c1)c1cccc([N+](=O)[O-])c1	i	-1	0.97	99	·	·	·
70	CCOC(=O)c1nnn(-c2ccccc2C#N)c1C	i	-13	0.99	96	-2.3	84	-14
71	NNC(=O)c1ccc([N+](=O)[O-])c(CS(=O)(=O)c2ccc(Cl)cc2)c1	·	-7	·	100	-0.2	·	·
72	COc1cc(C(=O)OCC(=O)Nc2c(F)cccc2F)cc(OC)c1C	i	3	0.93	108	·	89	21
73	Cc1cc(NS(=O)(=O)c2ccc(NS(=O)(=O)c3ccc(CC(C)C)cc3)cc2)nc(C)n1	i	-5	0.96	101	·	·	·
74	CCCCOc1ccc(-c2[nH]ncc2C=O)cc1	i	-5	0.88	105	·	77	40
75	Cc1ccccc1Cn1c(CN2CCN(c3ccc(F)cc3)CC2)nc2c1c(=O)n(C)c(=O)n2C	·	3	·	172	-1.0	132	-29
76	O=C(Nc1nc2ccccc2[nH]1)c1ccc(F)c(S(=O)(=O)N2CCOCC2)c1	i	-10	1.1	82	0.2	·	·
77	O=C1CCC(=O)N1OCCCOc1ccc2c(c1)CCC2	i	-3	1	104	-2.9	126	-154
78	CC(C)(C)NNC(=S)Nc1cccc(F)c1	i	·	0.91	106	·	·	·
79	CC(C)[C@H](NC(=O)OCc1ccccc1)C(=O)NCc1ccccc1	i	0	1	70	-1.2	83	-30
80	COc1ccc2c(c1)C(c1ccc(C)o1)=NNC(c1ccccc1)=N2	i	-5	0.9	99	·	·	·
81	Cc1ccc(S(=O)(=O)c2cnc(-c3ccccc3)nc2Oc2ccccc2)cc1	i	4	0.97	78	-0.1	163	-91
82	Cc1cc(CN(C)Cc2ccc(OCC(O)CN(C)Cc3ccccc3)cc2)on1 (stereo unspecified)	i	5	0.86	99	·	·	·
83	O=C(O)C1C2C=CC(C2)C1C(=O)NCc1ccc(Cl)c(Cl)c1 (stereo unspecified)	i	-11	1.1	34	0.5	84	-54
84	O=C(Nc1ccc(N2CCOCC2)c(Cl)c1)c1ccc(F)cc1	i	-2	1	105	-1.1	124	46
85	O=C1CN(C(=O)COC(=O)CCC(=O)c2ccc3c(c2)OCCO3)c2ccccc2N1	i	-6	0.92	96	-0.7	166	-9
86	C/C(=N\NC(=O)Cn1cc([N+](=O)[O-])cn1)c1ccco1	i	·	0.93	125	·	·	·
87	O=C(Nc1ccccc1Cl)C1CC(=O)N(c2ccccc2)C1 (stereo unspecified)	i	·	0.84	102	·	·	·

A draw from above in order of number of heavy atoms, ascending:
entry	Compound	HSV augment	PKD1 inh	HSV augment primary fold	RGS16-Gao HTS	GALR2 ag	Insulin prom inh cell count	Insulin prom inh
3	CC(=O)NC(=S)Nc1cc(C(=O)O)ccc1Cl	i	-1	0.95	107	·	113	-27
38	CCOc1ccc(NC(=O)CC(c2ccccc2)c2ccc(F)cc2)cc1 (stereo unspecified)	i	-4	1	103	-0.8	74	-19
34	O=C(Nc1nc2ccccc2s1)c1cccc(S(=O)(=O)N2CCc3ccccc32)c1	i	·	1	99	·	·	·
